Rce1 inhib: yeast Ras-converting enzyme inhibition. Q03530. yeast membranes, quenched prenylated peptide cleavage fluorescence. calls only. 290,000 tested, 0.27% active. AID 2563;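 active = fall in fluorescence gain of 50% or more versus controls, with final raw signal at or below 3038400; inconclusive = same 50% fall but final raw signal above 3038400; inactive = fall in fluorescence gain under 50%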;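 note: plate controls were neutral control wells for no effect and wells lacking membranes for full effect; tested at 10 µM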
Target sequence (Q03530 whole entry, looked up): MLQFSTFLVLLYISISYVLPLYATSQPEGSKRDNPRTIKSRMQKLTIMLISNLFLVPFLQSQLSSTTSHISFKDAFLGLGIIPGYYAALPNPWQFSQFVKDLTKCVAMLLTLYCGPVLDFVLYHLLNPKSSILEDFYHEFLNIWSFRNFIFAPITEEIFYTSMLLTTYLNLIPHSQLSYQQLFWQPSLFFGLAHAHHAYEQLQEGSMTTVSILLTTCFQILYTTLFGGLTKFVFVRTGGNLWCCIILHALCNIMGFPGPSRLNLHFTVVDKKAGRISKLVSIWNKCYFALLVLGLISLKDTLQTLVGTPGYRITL
PABP FP inh: blocks human PABP binding to poly(A) RNA. P11940. 290,000 tested, 1% active. inhibition, % at 35 µM. AID 2014. fluorescence polarization;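 active = 50% or more with normal probe brightness, or confirmed in later tests; inconclusive = above 50% with abnormal brightness, or retests that disagree; inactive = below 50% or failed in later tests; about a fifth of its hits are not listed in these tables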;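 note: calls also rest on retests at 20 µM and on dose response follow-up; controls were probe without protein and protein plus probe with vehicle; some compounds called inactive have numbers as strong as hits; many hits fall short of the cut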
Target sequence (P11940 whole entry, looked up): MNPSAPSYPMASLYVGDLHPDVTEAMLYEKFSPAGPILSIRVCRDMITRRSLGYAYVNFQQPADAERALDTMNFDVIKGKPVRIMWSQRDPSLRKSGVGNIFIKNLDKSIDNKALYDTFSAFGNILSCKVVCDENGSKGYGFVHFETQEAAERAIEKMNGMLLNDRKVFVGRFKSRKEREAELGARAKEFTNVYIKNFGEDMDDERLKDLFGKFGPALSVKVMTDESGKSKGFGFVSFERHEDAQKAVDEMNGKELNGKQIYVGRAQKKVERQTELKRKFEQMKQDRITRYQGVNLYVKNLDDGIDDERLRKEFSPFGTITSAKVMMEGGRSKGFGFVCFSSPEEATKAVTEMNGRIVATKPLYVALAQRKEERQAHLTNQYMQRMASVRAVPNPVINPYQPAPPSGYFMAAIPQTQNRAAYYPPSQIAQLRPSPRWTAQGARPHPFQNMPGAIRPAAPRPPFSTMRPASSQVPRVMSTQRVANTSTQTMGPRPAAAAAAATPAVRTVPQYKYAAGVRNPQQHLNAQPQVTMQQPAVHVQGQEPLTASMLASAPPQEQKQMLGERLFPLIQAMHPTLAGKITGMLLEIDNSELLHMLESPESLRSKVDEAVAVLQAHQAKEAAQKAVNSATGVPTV
Yeast UUG start: yeast start codon fidelity modulation; S. cerevisiae UUG-firefly luciferase reporter, luminescence/redox ratio; AID 602363; 350,000 tested, 0.13% active; activity score, % at 18.7 µM;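 active = replicate mean at a twofold rise or more, about +100% in these data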;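 note: firefly luciferase made from a UUG start codon reports start codon fidelity; reporter light over untreated wells divided by growth signal over untreated wells; some hits fall short of that in this replicate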
Env fusion inh: HIV envelope-mediated fusion inhibition. HeLa-JRFL Env/CEM21 cell fusion, luciferase. inhibition, % at 12.3 µM. 360,000 tested, 1.1% active. AID 651610;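 active = mean replicate inhibition score of at least 50 and every replicate individually at or above 50; inconclusive = only one of the two criteria met; inactive = mean below 50 and not all replicates reaching 50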;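 note: 0% = plate neutral controls and 100% = maraviroc near 300 nM; one replicate is shown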
CSC inhib: blocks cancer stem cells | AID 2717 | 300,000 tested, 1.1% active | cancer stem cell-like cells viability, luminescence | inhibition, % at 7.5 µM;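 active = mean at 75% or more and at least half the replicates too; inconclusive = mean and replicates disagree; tested in HMLE shEcad cells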;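 note: 0% = median of negative and 100% = median of positive control wells; the first replicate is given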
eIF4H inh: inhibitors of RNA binding by human eIF4H; eIF4H fluorescence polarization binding assay; 290,000 tested, 0.94% active; inhibition, % at 35 µM; AID 2012;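 active = 50% or more with normal probe brightness, or confirmed in later tests; inconclusive = above 50% with abnormal brightness, or retests that disagree; inactive = below 50% or failed in later tests; about a fifth of its hits are not listed in these tables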;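 note: calls also rest on retests at 20 µM and on dose response follow-up; 0% = protein and probe with vehicle and 100% = probe without protein; strong numbers were not always called active; many hits fall short of the cut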
MT1-MMP act inh: MT1-MMP (human) activation inhibition; P50281; HT1080 RFP-PRO-GFP cells, GFP/RFP ratio fluorescence, overnight; percent of plate control window, DMSO zero; GFP/RFP ratio change, % at 20 µM; 360,000 tested, 0.061% active; AID 651647;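 active = GFP/RFP ratio change of at least 30% with cell ATP level not reduced by more than half and red fluorescence within 50% of control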; note: strong numbers were not always called active
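Test system: HT1080 RFP-PRO-GFP cells; Benchmarks: DMSO and RFP-L50D-GFP cell wells; Timing: cells overnight before dosing, compound overnight, 37 °C, 5% CO2; Compound: one 20 µM compound dose with 1% DMSO; Read-out: GFP/RFP fluorescence ratio.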
eIF4H inh retest: second read-out of eIF4H inh, no call of its own (marks repeat the call); inhibition, %; compound at 20 µM; confirmation average;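 mean of two retest wells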
PABP FP inh retest: also measured in PABP FP inh; calls as there; inhibition, %; compound at 20 µM; confirmation repeats;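 mean of two retest wells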
MT1-MMP act inh RFP: also measured in MT1-MMP act inh; calls as there; RFP signal change, %; measured here: RFP expression control read;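 0 = vehicle wells; hits needed this value within 50% of zero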
Numbers without * were called inactive; i = inactive; ? = inconclusive; · = no result given; & = joins results of further samples.

SMILES | Rce1 inhib | PABP FP inh | Yeast UUG start | Env fusion inh | CSC inhib | eIF4H inh | MT1-MMP act inh | MT1-MMP act inh RFP | others
O=C(CSc1nnc(-c2ccccc2F)n1C1CCCCC1)N1CCCC1 | i | -5 | -6 | -41 | -9 | -7 | -2 | -8
CN(C)/C=C(\C#N)C(N)=C(C#N)C#N | i | -16 | · | 5 | -2 | 20 | -16 | 5
COc1c(O)cccc1-c1nnn(CCC(=O)OCC(=O)c2ccccc2)n1 | i | 3 | -15 | 0 | · | 92 | 5 | -1 | eIF4H inh retest=-9;PABP FP inh retest=2
O=C(COC(=O)/C=C/c1ccccc1F)Nc1nnc(-c2ccccc2)o1 | i | · | -18 | 0 | -3 | · | 0 | 3
CCCCC(=O)Nc1cccc(NC(=O)c2ccc(Br)cc2)c1 | i | 4 | 0 | -29 | -13 | 2 | -6 | -8
CCCCCCCN(c1ccccc1)[C@@H]1C[C@H]2CCCC(=O)N3CC[C@@H](C1)[C@@H]23 | · | · | -7 | 74* | · | · | 0 | -27
Cc1onc(-c2ccccc2Cl)c1C(=O)NCC(=O)O | · | 2 | -16 | -42 | -5 | 6 | 1 | 4
O=C(COC(=O)/C=C/c1cccs1)Nc1ccc(F)cc1 | · | · | -17 | -28 | · | · | 4 | -3
Cc1c(NC(=O)C(C)OC(=O)COc2cccc3c2OC(C)(C)C3)c(=O)n(-c2ccccc2)n1C (centres undefined) | i | 6 | 1 | · | 6 | -9 | 2 | 4
CC(C)(C)C1CCC(=O)N(CCOc2ccccc2)CC1 (centres undefined) | i | 8 | -15 | -12 | -6 | 7 | -2 | -2
COc1ccc2c(=O)c3c(=O)n(Cc4ccco4)c(-c4ccccc4)nc3oc2c1 | i | 11 | 0 | -109 | -10 | -4 | -3 | 0
COc1ccccc1C(=O)Nc1ccc(C(=O)N2CCCC2)cc1 | i | -2 | · | -85 | 6 | -9 | 13 | 2
COc1ccc(C(C(=O)NC2CCCC2)N(Cc2cccnc2)C(=O)c2snc(C(N)=O)c2N)cc1OC (centres undefined) | i | -7 | -16 | 16 | -11 | -1 | 3 | 3
CNCC(=O)Nc1ccc(OC(F)(F)F)cc1 | i | -21 | -8 | -1 | 8 | 6 | 7 | 9
Cc1nn(Cc2ccccc2)c(C)c1NC(=O)CCCn1nc([N+](=O)[O-])cc1C | i | -14 | -17 | -8 | -11 | -20 | 4 | 0
CCc1ccc(-c2cc(C(=O)NN3CCOCC3)c3ccccc3n2)s1 | i | 8 | · | -13 | -4 | 40 | -5 | -3
O=S(=O)(c1cccc(Br)c1)N1CCN(c2ncnc3scc(-c4ccccc4)c23)CC1 | · | · | -1 | 12 | · | · | -5 | -2
CCN(CC)S(=O)(=O)c1ccc(C(=O)NCC(=O)NCCCc2ccccc2)cc1 | i | -9 | -9 | -5 | · | -3 | 1 | 1
COc1ccccc1N1CCN(C(=O)Cn2c(=O)oc3cc(S(=O)(=O)N4CCCC4)ccc32)CC1 | i | -16 | 2 | 5 | 8 | -4 | -5 | 5
CC(=O)c1cnn(-c2ccc(Cl)cc2)c1C | i | -7 | -6 | 13 | -16 | -9 | 1 | 3

Some of these compounds in order of number of heavy atoms, rising.
SMILES | Rce1 inhib | PABP FP inh | Yeast UUG start | Env fusion inh | CSC inhib | eIF4H inh | MT1-MMP act inh | MT1-MMP act inh RFP | others
CC(=O)c1cnn(-c2ccc(Cl)cc2)c1C | i | -7 | -6 | 13 | -16 | -9 | 1 | 3
CNCC(=O)Nc1ccc(OC(F)(F)F)cc1 | i | -21 | -8 | -1 | 8 | 6 | 7 | 9
Cc1onc(-c2ccccc2Cl)c1C(=O)NCC(=O)O | · | 2 | -16 | -42 | -5 | 6 | 1 | 4
CC(C)(C)C1CCC(=O)N(CCOc2ccccc2)CC1 (centres undefined) | i | 8 | -15 | -12 | -6 | 7 | -2 | -2
COc1ccccc1C(=O)Nc1ccc(C(=O)N2CCCC2)cc1 | i | -2 | · | -85 | 6 | -9 | 13 | 2
CCc1ccc(-c2cc(C(=O)NN3CCOCC3)c3ccccc3n2)s1 | i | 8 | · | -13 | -4 | 40 | -5 | -3
Cc1nn(Cc2ccccc2)c(C)c1NC(=O)CCCn1nc([N+](=O)[O-])cc1C | i | -14 | -17 | -8 | -11 | -20 | 4 | 0
CCN(CC)S(=O)(=O)c1ccc(C(=O)NCC(=O)NCCCc2ccccc2)cc1 | i | -9 | -9 | -5 | · | -3 | 1 | 1
O=S(=O)(c1cccc(Br)c1)N1CCN(c2ncnc3scc(-c4ccccc4)c23)CC1 | · | · | -1 | 12 | · | · | -5 | -2
Cc1c(NC(=O)C(C)OC(=O)COc2cccc3c2OC(C)(C)C3)c(=O)n(-c2ccccc2)n1C (centres undefined) | i | 6 | 1 | · | 6 | -9 | 2 | 4
COc1ccc(C(C(=O)NC2CCCC2)N(Cc2cccnc2)C(=O)c2snc(C(N)=O)c2N)cc1OC (centres undefined) | i | -7 | -16 | 16 | -11 | -1 | 3 | 3

New compounds follow:
SMILES | Rce1 inhib | PABP FP inh | Yeast UUG start | Env fusion inh | CSC inhib | eIF4H inh | MT1-MMP act inh | MT1-MMP act inh RFP | others
COC(=O)c1c(C(=O)OC)c2cc(C(=O)c3ccccc3)ccn2c1Cl | i | -12 | 9 | · | 10 | 13 | 21 | -1
Cc1cc([N+](=O)[O-])ccc1NC(=O)/C=C/c1cccs1 | i | 7 | · | -470 | 1 | 4 | 8 | -2
Cn1c(CCN2CCN(c3ccccn3)CC2)nc2cc(NC(=O)COc3ccc([N+](=O)[O-])cc3)ccc21 | i | 6 | -11 | -12 | -1 | -8 | 2 | 3
CC1(C)CCCC2=C1CC1C(=O)N(O)C(=O)C1C2 (centres undefined) | i | 10 | 12 | -52 | -9 | 1 | 5 | 4
Cc1ccc(S(=O)(=O)N2[C@@H](c3ccc(C#N)cc3)C(C(=O)O)=C[C@H]2C(C)(C)C)cc1 | · | · | -8 | 4 | · | · | 3 | 5
C#CCN1Cc2ccccc2Oc2cc(Br)ccc2S1(=O)=O | · | · | -12 | 8 | · | · | -1 | -4
CCOC(=O)N1CCN(S(=O)(=O)c2ccc3c(c2)oc(=O)n3C)CC1 | i | 97 | -12 | -24 | -6 | 88 | 7 | 10 | eIF4H inh retest=1;PABP FP inh retest=3
CC(C)(C)[C@H]1COC(=O)[C@H](NC(=O)OCC2c3ccccc3-c3ccccc32)C/C=C\C[C@@H](CC(=O)N(CCO)Cc2ccccc2)C(=O)N1 | · | · | -6 | -17 | · | · | 2 | -4
CCOC(=O)NC(Nc1ccc(C)cn1)(C(F)(F)F)C(F)(F)F | i | -16 | · | · | -4 | -14 | 2 | 15
CCc1ccccc1NC(=O)C(C#N)Cc1cccnc1 (centres undefined) | i | -13 | -5 | -33 | -12 | 3 | -4 | 0
CC(=O)C[C@@H](O)CC(=O)[C@H]1OC(=O)CCCCCCc2ccccc21 | · | · | -8 | -17 | 17 | · | -4 | 3
COCCNC(=O)Nc1ccc2c(c1)N(C)C(=O)CS2 | i | -3 | 1 | · | -11 | 1 | 0 | 4
CCC(CC)=NNC(=O)c1ccccc1OCc1ccc(F)cc1 | i | ? | -20 | · | -8 | -9 | 0 | -7
C[C@H](CO)N1C[C@H](C)[C@@H](CN(C)CC2CC2)OCc2cnnn2CCCC1=O | · | · | 16&8 | -5 | · | · | 0 | 4
O=C(N/C(=C/C=C/c1ccccc1)C(=O)N1CCOCC1)c1ccccc1Cl | i | -6 | · | 17 | -7 | 0 | -4 | -1
COc1ccc(NC(=O)CCn2cc(C)c3ccccc32)cc1 | i | 2 | -5 | · | 0 | 6 | 4 | 2
COc1ccc(C/C(N)=N/OC(=O)c2cccs2)cc1 | i | 29 | · | 0 | -10 | -2 | 1 | 2
O=C(NCC1CCCO1)c1cc2cc(F)ccc2[nH]1 (centres undefined) | i | -4 | -13 | -22 | -8 | -3 | -3 | 0
Cc1cc(C)n(S(=O)(=O)c2cc(C(=O)O)c(Cl)cc2Cl)n1 | i | -3 | -6 | · | -10 | -10 | 4 | 1
CC1(C(=O)NS(=O)(=O)c2cccc(OC(F)F)c2)CCN1C(=O)c1cccc(F)c1 (centres undefined) | · | · | -15 | -6 | · | · | 9 | 12
O=C(c1ccco1)N1CCN(C(=O)C2CCCN(S(=O)(=O)c3cccc4nsnc34)C2)CC1 (centres undefined) | i | -8 | 14 | · | 8 | -1 | -1 | 3
CCc1ccc(NC(=O)CSc2nc(NS(=O)(=O)c3ccccc3)cc(=O)[nH]2)cc1 | i | 6 | · | -1 | · | 14 | 2 | 1
COc1ccc(C(=O)N2C(=O)c3ccc(N)cc3C2=O)cc1 | i | 9 | · | 0 | 0 | 5 | 2 | 0
CCN(CC)C(=O)C1=C(C)N(CCCOC)C(=O)C(CC(=O)NCCCN(C)C)C1 (centres undefined) | · | · | 12 | 8 | · | · | 0 | 3
COc1ccccc1CNC(=O)c1cc(C)nc2ccccc12 | i | -2 | -17 | 11 | 0 | -2 | -1 | -4
COc1ccc(C)cc1NC(=O)NC(C)c1ccc2c(c1)OCO2 (centres undefined) | i | 14 | -10 | · | -5 | -2 | 1 | -1
CCOC(=O)c1ccc(N2C(=O)C(CC(=O)NC)N(CCc3ccc(OC)c(OC)c3)C2=S)cc1 (centres undefined) | i | 1 | 8&1 | -29 | 21 | -3 | 5 | 0
COc1ccc(OC)c(NC(=O)c2cccc(N3C(=O)C4C5C=CC(C6CC56)C4C3=O)c2)c1 (centres undefined) | i | · | -13 | 3 | 3 | · | 2 | -24
CCN(CC)C(=O)c1csc(Nc2cccc3ccccc23)n1 | i | -11 | -21 | 8 | 0 | -11 | 1 | 1
Cc1ccc(Nc2cc(-n3nc(C)cc3C)ncn2)c(C)c1 | i | -10 | -24 | 22 | -9 | -9 | -9 | -5
O=C(c1ccccc1)c1ccc(C(=O)N2CCN(c3ccccc3Cl)CC2)cc1 | · | · | -2 | -14 | 5 | · | 2 | -1
CC(C)NC(=O)c1cc(-c2ccc(Br)cc2)on1 | i | 4 | -22 | -144 | -12 | 3 | -5 | 4
O=C(Nc1ccc(C(F)(F)F)cc1Cl)c1ccc(Cn2cc(Br)cn2)o1 | i | 9 | -4 | · | 3 | -4 | 2 | -2
CC(C)(C)OC(=O)N1CCC(NC(=O)c2nc[nH]c2C(=O)N2CCN(c3ccccc3)CC2)CC1 | · | · | -11 | -226 | -3 | · | 1 | -3
O=C(Nn1c(C2CCCCC2)nc2ccccc2c1=O)c1ccc(Cl)c([N+](=O)[O-])c1 | i | -3 | · | ? | 17 | -4 | 0 | 2
CCc1ccc(C(C)NC(=O)c2ccc3c(c2)OCO3)cc1 (centres undefined) | i | 3 | -6 | 10 | -5 | -8 | -1 | -1
COc1ccc2nc(N/C(N)=N/C(=S)Nc3ccccc3)nc(C)c2c1 | i | 36 | · | 9 | · | -3 | 2 | -5
C=CCNC(=O)NS(=O)(=O)c1ccc(C)cc1 | i | -12 | · | · | 0 | 9 | -2 | 4
O=c1c2ccccc2nc2n1CC/C2=C/N1CCN(c2cccc(C(F)(F)F)c2)CC1 | i | 25 | · | · | 5 | 8 | -10 | 12

These rows are one share of the data; count on the stated rates, not on these rows.
